Compound activity deposited in PubChem by National Center for Advancing Translational Sciences (NCATS).
CtBP-E1A inh: blocks the CtBP interaction with E1A; AlphaScreen GST-E1A/His-CtBP binding, 1536-well; stronger effect = lower value; control for the full effect not named in the record; activity change, % (concentration not given with the values); hit rate 0.49% among 340,000; in the data active means activity change below about -65%; inconclusive means about -30% to -65%; inactive means above about -30%; also: % is scaled to controls: 0 for no effect and ±100 for the full control effect
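Steps: dispense buffer (Tris pH 8.0, NaCl 300 mM, TCEP 1 mM, BSA, Tween 20); add 5X protein mix (GST-E1A, His-CtBP, 125 nM each); pin 23 nL compound; 2 h at 37 °C, dark; add 5X beads (50 ug/mL); 1 h; read.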
D2 potentiator: potentiates the human D2 dopamine receptor allosterically | AID 624464 | DiscoveRx D2 beta-arrestin cells, luminescence, 90 min; 100% = 57 uM dopamine signal | potentiation, % (concentration not given with the values) | hit rate 0.23% among 360,000; active = potentiation of 50% or more; inconclusive = 30% to 50%; inactive = 30% or less;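 also: compound concentration not given in the record; tested on top of an EC20 dose of dopamine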
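PathHunter beta-arrestin assay in DiscoveRx D2 cells. Compounds were added with an EC20 of dopamine (50 nM final) for 90 min at 37 deg C. Luminescence was read 1 h after detection reagent, with 57 uM dopamine as the EC100 control.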
gsp antagonist: gsp mutant antagonism. gsp-mutant cells, cAMP HTRF, 30 min; control for the full effect not named in the record. Potency, µM (titrated, usually from 76.9 µM), for inactives: at the top dose activity change, negative = inhibition, hits mostly inhibitors. hit rate 0.4% among 340,000. AID 624288; active = falling curve of any shape with a large fitted effect; inconclusive = falling curve, mostly with a smaller effect; inactive = flat or rising curve; cell line not stated here;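 also: intracellular cAMP measured with PDE inhibitor Ro 20-1724 present during compound exposure; potency is read from the fitted curve at half-maximal effect; % is scaled to controls: 0 for no effect and ±100 for the full control effect; nearly all actives have a fitted effect of over 65% in size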
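Cells, 2000/well, grown 16–24 h in DMEM 10% FBS with 0.5 mg/ml G418, then compounds plus […] (300 uM addition stock), 30 min at 37C. cAMP read by HTRF (cAMP-d2 and anti-cAMP antibody-K in lysis buffer) after 30 min RT.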
D2 agonist: human D2 receptor agonism in beta-arrestin assay | P14416 | DiscoveRx PathHunter D2 beta-arrestin, luminescence, 90 min; 100% = 57 uM dopamine signal | activation, % (no concentration beside the values) | hit rate 0.084% among 360,000; in the data active = activation above about 40%; inconclusive = about 15% to 40%; inactive = below about 15%; also: compound concentration not given in the record; the text of the record calls up to 30% inactive
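Agonist mode: compounds alone added to overnight-plated D2 PathHunter cells for 90 min at 37 C, with 57 uM final dopamine (EC100) defining full response. Beta-arrestin recruitment detected by chemiluminescent reagent, read after 1 h at ambient temperature.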
gsp agonist: gsp mutant agonism; hit rate 0.13% among 340,000; gsp mutant cells, cAMP HTRF, 30 min; control for the full effect not named in the record; Potency, µM (series often up to 76.9 µM), without a hit: at the top dose activation (cAMP increase), actives largely listed as activators; active = well fitted activation curve with a large enough effect; inconclusive = small, poorly fitted or top-dose-only effect, or another doubt; inactive = no such curve, though single readings can be large or run the other way; cell line not stated here;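 also: phosphodiesterase inhibitor Ro 20-1724 added with compounds to block cAMP breakdown; potency is read from the fitted curve at half-maximal effect; nearly all actives have a fitted effect of over 60% in size; about a fifth of the inactives were tested at one dose only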
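Cells stably selected in G418 were plated at 2000/well, grown 16-24 hr, then given compounds in DMSO with the PDE inhibitor […] (300 uM solution added) for 30 min at 37C; cAMP was read by HTRF.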
Six1-Eya2 blk: blocks human Six1 binding to Eya2; AlphaScreen GST-Six1/His-Eya2 binding, biochemical; stronger effect = lower value; control for the full effect not named in the record; Q15475+O00167; activity change, % (no concentration beside the values); hit rate 0.56% among 360,000; in the data active = activity change below about -65%; inconclusive = about -30% to -65%; inactive = above about -30%; also: % is scaled to controls: 0 for no effect and ±100 for the full control effect; compound concentration not given in the record
Target sequence (O00167 whole entry, looked up): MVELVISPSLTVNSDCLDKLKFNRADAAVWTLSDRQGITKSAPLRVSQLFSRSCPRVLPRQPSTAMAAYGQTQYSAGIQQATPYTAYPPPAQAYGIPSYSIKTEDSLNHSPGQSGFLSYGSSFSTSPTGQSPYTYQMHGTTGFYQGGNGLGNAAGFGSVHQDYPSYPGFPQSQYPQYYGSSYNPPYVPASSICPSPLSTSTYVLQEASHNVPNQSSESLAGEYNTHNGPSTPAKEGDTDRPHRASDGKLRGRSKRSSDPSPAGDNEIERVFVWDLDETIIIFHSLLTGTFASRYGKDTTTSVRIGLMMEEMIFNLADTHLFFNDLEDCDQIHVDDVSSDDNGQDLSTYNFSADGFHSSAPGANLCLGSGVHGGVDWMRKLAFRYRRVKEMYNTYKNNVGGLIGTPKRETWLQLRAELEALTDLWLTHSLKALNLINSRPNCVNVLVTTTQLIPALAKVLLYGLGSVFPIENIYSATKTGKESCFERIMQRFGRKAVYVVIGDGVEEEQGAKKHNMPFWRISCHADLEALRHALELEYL
Target sequence (Q15475 whole entry, looked up): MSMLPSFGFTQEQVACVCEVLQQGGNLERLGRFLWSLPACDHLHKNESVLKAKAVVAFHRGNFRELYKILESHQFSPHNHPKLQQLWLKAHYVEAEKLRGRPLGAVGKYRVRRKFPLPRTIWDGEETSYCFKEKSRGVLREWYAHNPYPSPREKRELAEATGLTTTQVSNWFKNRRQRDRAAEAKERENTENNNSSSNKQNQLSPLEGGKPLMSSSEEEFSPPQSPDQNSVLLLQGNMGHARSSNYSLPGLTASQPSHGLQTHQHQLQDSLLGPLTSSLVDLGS
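AlphaScreen luminescence read after one hour at 37 °C in darkness. Pin-transferred compounds met GST-Six1 and His-Eya2 protein (5X stock 250 nM/500 nM) plus glutathione donor and Ni-chelate acceptor beads (5X, 50 ug/mL).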
* hit, by the source's call; ? = inconclusive; nt = no result given; [ ] = remark or other dose.

(1) Cc1ccc(NC(=O)CSc2nc(N)cc(=O)[nH]2)cc1Cl
(2) CCC(c1nnc(SCC(=O)Nc2ccc(C(=O)Nc3ccccc3OC)cc2)o1)N(C)C (centres undefined)
(3) CCN(CC)C(=O)c1ccc(-c2nnc(Nc3ccc(C(=O)NC)cc3)c3ccccc23)cc1
(4) Cc1nc2c(c3c1[nH]c1ccccc13)C(=O)CC(C)(C)C2
(5) CCc1cc(=O)oc2cc(C)cc(OC(C)C(=O)NCc3ccccn3)c12 (centres undefined)
(6) O=C1c2ccccc2C(=O)N1CCCCNc1ccccc1
(7) CCCN(CC(=O)Nc1cc(C)on1)S(=O)(=O)c1cccc(C(F)(F)F)c1
(8) CCN(CC)S(=O)(=O)c1ccc2oc(C(=O)O)c(C)c2c1
Compound,1,2,3,4,5,6,7,8
CtBP-E1A inh,11,-7,nt,-2,-1,-2,3,0
D2 potentiator,-12,-9,8,-2,0,6,1,0
gsp antagonist,8%,-4%,-21%,-10%,6%,4%,6%,3%
D2 agonist,-2.4,-0.2,11,-0.1,1.1,-2.3,0.1,-3.8
gsp agonist,-6%[15.4 µM],-19%,14%,?,2%,-4%[15.4 µM],?,10%
Six1-Eya2 blk,-19,0,-2,-1,-3,-19,0,13

(9) CN(c1ccccc1)S(=O)(=O)c1ccc2[nH]c(=O)oc2c1
(10) OC[C@H]1OC(Nc2ccc(N=Nc3ccccc3)cc2)[C@@H](O)[C@@H](O)[C@@H]1O (some centres undefined)
(11) O=C(CN1CCN(S(=O)(=O)c2ccccc2)CC1)Nc1ccccc1C(=O)NC1CC1
(12) COc1ccc([N+](=O)[O-])cc1N/C(=N/S(=O)(=O)c1ccccc1)c1ccccc1
(13) NC(=O)[C@@H]1CC2(CC(c3cccc(NC(=O)CC(c4ccccc4)c4ccccc4)c3)=NO2)CN1C(=O)COc1ccc(Cl)cc1 (some centres undefined)
(14) CN(Cc1nc(-c2ccccn2)no1)S(=O)(=O)c1ccccc1
(15) Cc1ccc(C(=O)N/C(=C/c2ccco2)C(=O)NCCCn2ccnc2)cc1
(16) COc1ccc(CNC(=O)c2ccc(NC(=O)CC3SC(N4CCCC4)=NC3=O)cc2)cc1 (centres undefined)
Compound,9,10,11,12,13,14,15,16
CtBP-E1A inh,-6,nt,14,-18,-4,-4,-12,2
D2 potentiator,-43,-8,-30,2,4,13,12,-11
gsp antagonist,nt,8%,-16%,?,2%,6%,11%,0%
D2 agonist,-4.8,-5.3,1.7,-2.8,-2.8,-1.1,-2.4,-2.6
gsp agonist,3%[15.4 µM],-13%,-5%,-4%[15.4 µM],nt,31%,-20%[15.4 µM],10%
Six1-Eya2 blk,1,0,4,-7,-2,10,?,-3

Reprinted from the part before: 3 compounds, then new ones.
(14) CN(Cc1nc(-c2ccccn2)no1)S(=O)(=O)c1ccccc1
(15) Cc1ccc(C(=O)N/C(=C/c2ccco2)C(=O)NCCCn2ccnc2)cc1
(16) COc1ccc(CNC(=O)c2ccc(NC(=O)CC3SC(N4CCCC4)=NC3=O)cc2)cc1 (centres undefined)
(17) CNC(=O)c1oc(-c2ccccc2)nc1C
(18) O=C(C[C@H]1C/C=C\C[C@H](Cc2ccc(F)cc2)C(=O)OCCNC1=O)NCCO
(19) COc1cc(/C=C2/C(=N)N3C(=NC2=O)SN=C3S(C)(=O)=O)ccc1OC(=O)c1ccco1
(20) CCN(CC)CCCNc1ccc(-c2nnc(-c3ccc(OCC(C)C)cc3)o2)cn1
(21) CC(=O)Nc1sc2c(c1C(=O)N1CCOCC1)CCCCC2
(22) CCOC(=O)N1CCN(CC(=O)Nc2cc3c(cc2C(C)=O)OCO3)CC1
(23) COc1ccc(C2C(C(=O)Nc3cccnc3)=C(C)Nc3nc(-c4cccs4)nn32)cc1 (centres undefined)
(24) COCCN1C[C@@H](CO)O[C@@H](n2cnc3c(NCCN(C)C)ncnc32)C1
Compound,14,15,16,17,18,19,20,21,22,23,24
CtBP-E1A inh,-4,-12,2,nt,nt,nt,-3,-4,6,0,39
D2 potentiator,13,12,-11,-12,-7,0,-20,19,0,-6,0
gsp antagonist,6%,11%,0%,2%,9%,-6%,11%,10%,5%,-4%,nt
D2 agonist,-1.1,-2.4,-2.6,3.7,-1.0,-0.8,-5.6,-3.0,-0.2,-1.7,-2.9
gsp agonist,31%,-20%[15.4 µM],10%,10%,8%,13%,-97%[inhibitor],5%,-8%,-33%[inhibitor],nt
Six1-Eya2 blk,10,?,-3,2,-2,-15,-1,-9,2,-3,31

(25) COc1ccccc1C(CC(=O)O)NS(=O)(=O)c1ccc2c(c1)N(C(C)=O)CC(C)O2 (centres undefined)
(26) CCC(C)(C)C1CCc2[nH]nc(C(=O)NN)c2C1 (centres undefined)
(27) O=C(O)c1cccc(NC(=S)N/N=C/c2ccccc2OCc2ccc(Br)cc2)c1
(28) CC(C)C(=O)N1CCN(c2ccccc2NC(=O)c2cccc(Cl)c2)CC1
(29) COC(=O)c1cc(-c2cccc(OC)c2)on1
(30) Cn1c(SCC(=O)NCc2ccco2)nc2ccccc2c1=O
(31) COc1ccc2oc(C(=O)NN3C(C)CCCC3C)c(C)c2c1 (centres undefined)
(32) O=C(Cc1n[nH]c(=O)[nH]c1=O)N/N=C/c1cccc(Cl)c1
Compound,25,26,27,28,29,30,31,32
CtBP-E1A inh,nt,-5,-4,7,4,-3,0,0
D2 potentiator,-4,-2,-9,-18,-9,-1,-10,-8
gsp antagonist,0%,-5%,?,-1%,1%,-7%,-5%,5%
D2 agonist,-1.8,-2.9,5.7,-4.1,-3.3,-2.9,-2.2,-3.8
gsp agonist,-9%,-24%[15.4 µM],?,-27%,-6%[15.4 µM],-5%,-2%[15.4 µM],4%[15.4 µM]
Six1-Eya2 blk,6,-4,-2,1,11,0,18,-4

(33) CCOC(=O)C(Cc1ccccc1)C(=O)NCc1cccnc1 (centres undefined)
(34) CCOc1ccc(CCN2C(=O)C(=O)N([C@@H](Cc3ccc(O)cc3)CN3CCC[C@@H]3CN3C(=O)C(=O)NC[C@@H]3Cc3ccccc3)C[C@@H]2Cc2ccccc2)cc1
(35) COc1cccc(C(C)N(C)Cc2nc(-c3ccoc3)oc2C)c1 (centres undefined)
(36) COc1ccc(C(=O)NCC(=O)OCc2csc(-c3ccccc3)n2)cc1
(37) Cc1ccc(S(=O)(=O)CCC(=O)Nc2nnc(-c3ccco3)o2)cc1
(38) O=C1C2C3CCCC3=C3CCCC3C2C(=O)N1c1ccccc1 (centres undefined)
(39) Cc1ccc(S(=O)(=O)N(C)c2c(C)ccc(S(=O)(=O)N3CCN(C)CC3)c2C)cc1
(40) CN1CCN(C(=O)CCN2C(=O)/C(=C\c3ccc(Cl)cc3)SC2=S)CC1
Compound,33,34,35,36,37,38,39,40
CtBP-E1A inh,nt,-4,-3,-4,-25,-1,-2,1
D2 potentiator,-15,-13,-7,-7,-1,20,-27,-5
gsp antagonist,7%,-9%,9%,-8%,-3%,3%,-15%,15%
D2 agonist,-3.0,0.2,-4.2,-1.2,-1.9,-0.1,-4.7,1.7
gsp agonist,4%,nt,-4%[15.4 µM],-16%,3%,18%,-5%,-9%
Six1-Eya2 blk,4,-15,-17,-2,-17,1,-2,-1

(41) O=C(CN1C(=O)CSC1=O)N1CCCCC1
(42) Nc1c(C(=O)CCC(=O)O)oc2ccc(Cl)cc12
(43) CC(C)c1ccc(Nc2nc(Cl)nc(Cl)n2)cc1
(44) O=C(Nc1ccc2c(c1)OCO2)Nc1ccccn1
(45) COc1ccc(CCNc2nc(-c3ccncc3)cs2)cc1OC
(46) CCOC(=O)N1CCN(c2nc(-c3ccc(Cl)cc3)cs2)CC1
(47) COc1ccccc1-n1cnc2cc(NC(C)=O)ccc21
(48) CN(Cc1ccccc1Cl)C(=O)C1CCC(=O)N(C2CCCCCC2)C1 (centres undefined)
Compound,41,42,43,44,45,46,47,48
CtBP-E1A inh,5,0,nt,nt,-20,-8,-1,3
D2 potentiator,-6,-12,2,1,-7,0,-13,-3
gsp antagonist,15%,-5%,8%,8%,-15%,?,-13%,-5%
D2 agonist,1.3,-3.8,-3.1,3.0,9.1,3.0,4.0,1.0
gsp agonist,7%,12%,-36%[inhibitor],-2%,-2%,9%,5%,11%
Six1-Eya2 blk,6,-1,-4,9,-11,4,7,5

(49) O=C(NCc1ccco1)c1cc2sccc2n1Cc1ccccc1
(50) CCOC(=O)C1(C)Oc2cccnc2NC1=O (centres undefined)
(51) Cc1ccc(NC(=O)CCN2CCC(C(N)=O)CC2)cc1
(52) COc1ccc(OCC(=O)Nc2ccc3oc(=O)ccc3c2)cc1
(53) CCc1ccccc1NC(=O)Cn1nnc(C(=O)NCc2cccc(OC)c2)c1N
(54) O=C(Nc1ccc2oc(-c3ccncc3)nc2c1)c1ccc2c(c1)OCO2
(55) Cc1ccccc1-n1c(O)c(C=NC2CCS(=O)(=O)C2)c2ccccc2c1=O (centres undefined)
(56) N#Cc1c(NC(=O)C(=O)NCCCN2CCOCC2)sc2c1CCC2
Compound,49,50,51,52,53,54,55,56
CtBP-E1A inh,-23,-8,10,0,nt,2,4,-16
D2 potentiator,-10,-10,-4,1,-14,-7,-2,-5
gsp antagonist,?,4%,6%,-12%,8%,-22%,0%,-11%
D2 agonist,-1.7,-4.1,7.5,4.8,-5.9,0.0,-0.1,-4.7
gsp agonist,13%,-2%[15.4 µM],-16%,-16%,6%,?,-26%,-63%[inhibitor]
Six1-Eya2 blk,-14,-15,6,-13,9,2,0,-8

(57) NC(c1ccccc1)c1csc(Nc2ccc(S(N)(=O)=O)cc2)n1 (centres undefined)
(58) COc1ccc2cc(C=NS(=O)(=O)c3ccc(C)cc3)n(C)c2c1
(59) CC(C)c1ccc(C(=O)COC(=O)C(O)c2ccccc2)cc1 (centres undefined)
(60) COc1ccc(S(=O)(=O)N2CCCCCC2)cc1NC(=O)CCc1cc(OC)c(OC)c(OC)c1
(61) C[C@@H]1CCCCCCCCCCC1=O
(62) CC(NC(=O)CSc1n[nH]c(=O)[nH]c1=O)C1CC2CCC1C2 (centres undefined)
(63) CCOc1cc(/C=C2/NC(=S)NC2=O)ccc1OCc1ccc([N+](=O)[O-])cc1
Compound,57,58,59,60,61,62,63
CtBP-E1A inh,-13,-22,4,nt,13,4,0
D2 potentiator,-7,-9,-20,3,0,-4,-12
gsp antagonist,nt,-3%,-15%,-7%,-5%,12%,-23%
D2 agonist,3.5,-2.1,-2.6,-1.6,-0.8,3.3,-6.7
gsp agonist,nt,22%,4%[15.4 µM],-6%,-4%[15.4 µM],34%,-19%
Six1-Eya2 blk,-1,17,-1,0,6,10,19

Hits appear at their usual frequency. Share with any hit: about 1.4%.
